Menin MLL FP FL: menin-MLL binding inhibition, fluorescein peptide; Fluorescence polarization, fluorescein-MLL peptide displacement from menin; FP activity change, % at 61.4 µM; 290,000 tested, under 10 active; AID 1766; inconclusive = falling polarisation curve, or a change in total fluorescence; inactive = total fluorescence flat and polarisation flat or rising; no compound was filed as active; the % refers to the polarisation; negative = inhibition;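 note: % of control where 0% means no effect; inhibitors lower the polarisation; unlabelled MLL peptide was the positive control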
* marks the source's active call; other numbers are inactive results; u = inconclusive; & = joins results of further samples; [ ] = another dose, or the depositor's remark.

Molecule	Menin MLL FP FL
COC(=O)c1ccc(C(NC(=O)OCc2ccccc2)/C(=C/[C@@H](C)C(=O)NCc2cccnc2)c2cccnc2)cc1 (stereo not given in full)	3.2
CNC1(C)C2CCC(C2)C1(C)C (stereo not given)	-2.2&-1.3
O=C(c1cccc(F)c1)N1CCC2(CCCN(c3cccc(-c4ccccc4)c3)C2)CC1	u
COc1ccc(-c2cnnc(N/N=C/C(C)=C/c3ccccc3)n2)cc1	7.3
NC[C@@H]1O[C@H](OC2[C@@H](CO)O[C@@H](OC3[C@H](O)[C@H](N)C[C@H](N)[C@H]3OC3O[C@H](CO)[C@@H](O)[C@H](O)[C@@H]3N)[C@H]2O)C(N)[C@H](O)[C@@H]1O (stereo not given in full)	4.1
C[n+]1nc(Nc2cccc3ccccc23)sc1-c1ccc(C(=O)O)cc1	1.2
CN(C)c1ccc(CNc2nc3ccccc3s2)cc1	-2.0
COC(=O)N1[C@H](Cc2ccccc2)C=C[C@]1(C)C(=O)NCc1ccc(N(C)C)cc1	0.6
CC(=O)c1ccc(OC2C=CC(c3ccc(Cl)cc3)OC2CO)cc1 (stereo not given)	1.8[11.7 µM]
N[C@@H](Cc1cc(CP(=O)(O)O)cc(-c2ccccc2Cl)c1)C(=O)O	u
CCOC(=O)c1[nH]c2ccc(F)cc2c1NC(=O)CN1CCc2cc(OC)c(OC)cc2C1	2.8
COc1ccc2c(c1)OC/C(=C/c1ccc(O)c(O)c1)C2=O	1.1
CCN(CC)c1ccc(/C=C(\C#N)C(=O)NCc2ccco2)cc1	u
CO/N=C(\C)CCN1CCCc2nc(C)c(C)cc21	-6.8[11.7 µM]
O=C(NC1CCCCC1)c1ccc(S(=O)(=O)c2ccccc2Cl)c([N+](=O)[O-])c1	3.4
CC1(C)OC2CC3C4CC(F)C5=CC(=O)CC[C@@]5(C)C4C(O)C[C@@]3(C)[C@]2(C(=O)CO)O1 (stereo not given in full)	-4.5
CSc1nc(N2CCN(CCO)CC2)c2sc3nc(-c4ccco4)c4c(c3c2n1)CCC4	3.6
COc1cccc(-c2nc(NC3CC3)c3ccccc3n2)c1	-0.8
CC(CNC(=O)c1cccnc1)NC(=O)c1cccnc1 (stereo not given)	-0.6
COc1ccc(-c2oc3cc(OC)c(OC(C)=O)c(OC)c3c(=O)c2OC)cc1OC(C)=O	u

3 compounds already listed, sorted by SMILES length, low to high:
Molecule	Menin MLL FP FL
CO/N=C(\C)CCN1CCCc2nc(C)c(C)cc21	-6.8[11.7 µM]
N[C@@H](Cc1cc(CP(=O)(O)O)cc(-c2ccccc2Cl)c1)C(=O)O	u
CC1(C)OC2CC3C4CC(F)C5=CC(=O)CC[C@@]5(C)C4C(O)C[C@@]3(C)[C@]2(C(=O)CO)O1 (stereo not given in full)	-4.5

Carrying on.
Molecule	Menin MLL FP FL
CCNc1ncc2nc(-c3cccc(C#N)c3)c(=O)n(C)c2n1	u
CC(C)=CCc1c2c(c(O)c3c(=O)c(O)c(-c4ccccc4)oc13)C=CC(C)(C)O2	0.2
NCCCC(N)CC(=O)NC1CNC(=O)C(C2CC(O)N=C(N)N2)NC(=O)/C(=C/NC(N)=O)NC(=O)C(CO)NC(=O)C(CO)NC1=O (stereo not given)	-7.5
COc1nc2ccccc2cc1-c1noc(-c2cccnc2)n1	2.0
COc1c(CC(=O)c2cc3c(cc2O)OC(C)(C)C(O)C3)ccc2c1C=CC(C)(C)O2 (stereo not given)	0.0
COC(=O)C1=C(C(=O)OC)[C@@H]2N(Cc3ccccc3)c3ccccc3[C@@]23C[C@@H](C(=O)OC)N(S(=O)(=O)c2ccc(C)cc2)C3=N1	3.1[11.7 µM]
Cc1nc(N=Nc2ccc(C(=O)O)cc2)c(COP(=O)(O)O)c(C=O)c1O	-3.6
Clc1ccc(-c2c[n+](Cc3ccc(Cl)c(Cl)c3)c3n2CCC3)cc1	5.2
Cc1ccc(S(=O)(=O)N(C)S(=O)(=O)c2ccc(C#N)cc2)cc1	-11
c1ccc(CSc2nnc3c4ccccc4c4ccccc4c3n2)cc1	-4.2
c1ccc2cc(C3=NCCN3)ncc2c1	17
Nc1nc2[nH]c(=O)cnc2c(=O)[nH]1	-5.0
CO[C@]1(NC(=O)[C@H](C(=O)O)c2ccc(O)cc2)C(=O)N2C(C(=O)O)=C(CSc3nnnn3C)CO[C@H]21	-9.7[24.8 µM]
C/C=C/C1Oc2ccc(OC)cc2N2C(=O)C(C)C(OCOC)C12 (stereo not given)	0.1[11.7 µM]
CCc1ccc(OCC(=O)N/N=C2\CC(=O)c3ccccc32)cc1	-1.7
COc1ccccc1CN1CCC2(CC1)CCN(C(=O)c1cccc(F)c1)CC2	-0.5
COc1ccc(NC(=O)N2CC3(CCNCC3)C2)cc1	-5.9
COc1cccc([C@@H]2Oc3ccc(Br)cc3C(=O)[C@H]2OC(=O)NCc2ccco2)c1	u
COc1cc2nc(N(C)CCCNC(=O)C3CCCO3)nc(N)c2cc1OC (stereo not given)	1.9&-0.1
CC1(C)C=CC(=O)[C@]2(C)C1CC(=O)[C@]1(C)C2CC[C@@]2(C)C(c3ccoc3)OC(=O)C3OC321 (stereo not given in full)	-2.1
CN1CCN(c2ncc3ncc(=O)n(Cc4ccc(F)cc4)c3n2)CC1	4.6
CCN1CCC[C@@H](OC(=O)C(c2ccccc2)c2ccccc2)C1	-2.3[24.8 µM]
O=C1CCC[C@@H](C(C(=O)OCc2ccccc2)C(=O)OCc2ccccc2)C1	-0.5[11.7 µM]
Cc1ccc(OCCN2CCN(CC(O)Cn3c4ccccc4c4ccccc43)CC2)cc1 (stereo not given)	-1.7
CC(=O)OC1C[C@]2(C)C(C(C)=O)CCC2C2CCC3=CC(=O)CC[C@@]3(C)C12 (stereo not given in full)	1.8
CN(C)C1CCN(CCCOc2ccc(-c3ccc(C#N)cc3)cc2)C1 (stereo not given)	-0.9&0.6
CC(/C=C/C=C(\C)C(=O)O[C@@H]1O[C@H](CO[C@@H]2O[C@H](CO)[C@@H](O)[C@H](O)[C@H]2O)[C@@H](O)[C@H](O)[C@H]1O)=C\C=C\C=C(C)\C=C\C=C(/C)C(=O)O[C@@H]1O[C@H](CO[C@@H]2O[C@H](CO)[C@@H](O)[C@H](O)[C@H]2O)[C@@H](O)[C@H](O)[C@H]1O	2.1
CC(C)C[C@H](NC(=O)[C@H](Cc1ccccc1)NC(=O)[C@@H]1CCCN1C(=O)[C@H](CC(=O)O)NC(=O)[C@@H]1CCC(=O)N1)C(=O)N[C@@H](CCCN=C(N)N)C(=O)N[C@@H](Cc1ccccc1)C(N)=O	-0.8
N#CC1=C(N)SC(N)=C(C#N)C1c1ccc(C(F)(F)F)cc1	u
C[C@H]1Cc2c(COc3ccccc3)nc3c(c2CO1)CN(S(=O)(=O)c1ccc(Cl)c2nonc12)CC3	10[11.7 µM]
O=c1[nH]c2cc([N+](=O)[O-])cc([N+](=O)[O-])c2[nH]c1=O	-5.8
O=c1c(-c2ccc(O[C@@H]3O[C@H](CO)[C@@H](O)[C@H](O)[C@H]3O)cc2)coc2cc(O)cc(O)c12	3.6
CCCCCCn1c(=O)c(-c2nc3ccccc3c(=O)[nH]2)c(O)c2ccccc21	-0.8
N#CCCn1c(=O)c(-c2ccc(Cl)cc2)nc2cnc(N3CCNCC3)nc21	-3.6
CC(C)CO/N=C1/C[C@@H](O)[C@@H](O)[C@@H]2[C@@H]3C(=O)N(Cc4ccc5c(c4)OCO5)C(=O)[C@H]3CC[C@@H]12	0.6[11.7 µM]
COC(=O)c1ccc(-c2ccc(C(=O)N3CCCN(C)CC3)cc2)cc1	1.8
c1csc(CNc2ccnc(-c3ccoc3)n2)c1	u
O=[N+]([O-])/C(=C\Nc1ccccc1Cl)S(=O)(=O)c1ccccc1	3.3
Cn1cccc1C(=O)N1CCC2(CCCN(c3cccc(-c4ccccc4)c3)C2)CC1	u
CC1(O)C(=O)C=C2C=C(c3ccsc3)OC=C2C1=O (stereo not given)	5.5

Three of the entries above in order of their number in Menin MLL FP FL, descending.
Molecule	Menin MLL FP FL
CC1(O)C(=O)C=C2C=C(c3ccsc3)OC=C2C1=O (stereo not given)	5.5
O=c1c(-c2ccc(O[C@@H]3O[C@H](CO)[C@@H](O)[C@H](O)[C@H]3O)cc2)coc2cc(O)cc(O)c12	3.6
COC(=O)c1ccc(-c2ccc(C(=O)N3CCCN(C)CC3)cc2)cc1	1.8

The list goes on:
Molecule	Menin MLL FP FL
CCc1cccc(NC(=O)CSc2nc3c(c(=O)[nH]2)CCCC3)c1	6.0
CC[C@@H](C)[C@@H](CO[C@@H](Cc1ccccc1)C(=O)N[C@@H](CCS(C)(=O)=O)C(=O)OC(C)C)NC[C@@H](N)CS	-5.2
CO[C@H]1C=CO[C@@]2(C)Oc3c(C)c(O)c4c(O)c(c5c(c4c3C2=O)NC2(CCN(CC(C)C)CC2)N=5)=NC(=O)C(C)=CC=C[C@H](C)[C@H](O)[C@@H](C)[C@@H](O)[C@@H](C)[C@H](OC(C)=O)[C@@H]1C	0.2
COCCNc1nc(-c2ccccc2C)nc2ccccc12	-1.2
COc1ccc(-c2nnc3n2N=C(c2ccccc2OC)CS3)c(OC)c1	-4.9
COc1ccc(-c2nnc3n2C(C)(C)Cc2cc(OC)c(OC)cc2-3)cc1	0.9
COc1ccc(-c2nc3cnc(Nc4cccc(OC)c4)nc3n(CCC#N)c2=O)cc1	u
CN1CCN(CC(=O)Nc2sc3c(c2C#N)CCC(C(C)(C)C)C3)CC1 (stereo not given)	3.8
COc1cccc(-c2cncnc2-n2ccnc2)c1	0.4
CC(C)[C@@H]1NC(=O)[C@H](CCCCN)NC(=O)[C@@H](Cc2c[nH]c3ccccc23)NC(=O)[C@H](Cc2ccc(O)cc2)NC(=O)[C@@H](NC(=O)[C@H](N)Cc2ccccc2)CSSC[C@@H](C(=O)N[C@@H](Cc2c[nH]c3ccccc23)C(N)=O)NC1=O	-0.3
CCOC(=O)CCN1C(=O)[C@H]2[C@H]3[C@H](O)[C@H](O)C/C(=N/O[C@@H]4O[C@@H](COC(C)=O)[C@@H](OC(C)=O)[C@@H](OC(C)=O)[C@H]4OC(C)=O)[C@@H]3CC[C@@H]2C1=O	2.0[11.7 µM]
N#Cc1ccc(CN2CCCC3(CCN(C(=O)c4ccncc4)CC3)C2)cc1	0.9
CC[C@H](C)[C@H](N)C1=N[C@H](C(=O)N[C@@H](CC(C)C)C(=O)N[C@@H](CCC(=O)O)C(=O)N[C@@H](C(=O)N[C@H]2CCCCNC(=O)[C@@H](CC(N)=O)NC(=O)[C@@H](CC(=O)O)NC(=O)[C@@H](Cc3cnc[nH]3)NC(=O)[C@@H](Cc3ccccc3)NC(=O)[C@@H]([C@@H](C)CC)NC(=O)[C@@H](CCCN)NC2=O)[C@@H](C)CC)CS1	-7.0[24.8 µM]
CCOc1ccccc1CNc1ncnc2ccc(-c3c(C)noc3C)cc12	-4.2
C=CCOC(=O)NC(c1ccc(F)c(F)c1)C(C(C)=O)C(=O)OC (stereo not given)	2.0
CO/N=C(\C(=O)NC1C(=O)N2C(C(=O)OCOC(=O)C(C)(C)C)=C(/C=C\c3scnc3C)CSC12)c1csc(N)n1 (stereo not given)	11
CC(=O)N1CCC[C@@]2(CCN(C(c3ccccc3)c3ccccc3)C2)C1	-1.5
O=C(NC(=S)Nc1ccc2c(c1)C(=O)c1ccccc1C2=O)c1ccc(F)cc1	-2.4
Cc1ccc(S(=O)(=O)c2c[nH]c3cc4c(cc3c2=O)OCO4)cc1	0.3
CCCCCCCCCCCC(=O)[O][Sn]([CH2]CCC)([CH2]CCC)[O]C(=O)CCCCCCCCCCC	0.4
NC(=O)CC[C@@H]1NC(=O)[C@H](CO)NC(=O)c2cc([N+](=O)[O-])cc(I)c2NCC[C@@H](C(N)=O)NC(=O)[C@H](Cc2ccc(O)cc2)NC1=O	1.1
O=c1c(-c2ccc(F)c(F)c2)nc2cncnc2n1Cc1ccc(F)cc1	1.0
COc1cccc(Nc2ncc3nc(-c4cn(C)c5ccccc45)c(=O)n(C[C@H]4CCCO4)c3n2)c1	u
Cc1cnc(CNc2nc(-c3c(C)noc3C)nc3ccccc23)cn1	0.1
CNc1ncnc2ccc(-c3ccccc3CN(C)C)cc12	2.0
COc1cc2c(C(=O)Nc3ccc4c(c3)OCO4)cn(CC(C)C)c(=O)c2cc1OC	0.7
c1cncc(CNc2nc(-c3ccoc3)nc3ccccc23)c1	u
Cc1ccccc1N1C(=O)c2cc(S(N)(=O)=O)c(Cl)cc2N[C@H]1C	1.5[24.8 µM]
C[C@@H](C(=O)N1CCN(C(=O)OC(C)(C)C)CC1)n1cc(-c2cn([C@@H](C)C(=O)N3CCN(C(=O)OC(C)(C)C)CC3)nn2)nn1	0.6
CC(C)(O)c1ccccc1CC[C@H](SCC1(CC(=O)O)CC1)c1cccc(/C=C/c2ccc3ccc(Cl)cc3n2)c1	-1.6
CCCCCCCC#Cc1ccccc1/C=N/S(=O)C(C)(C)C (stereo not given)	-7.4[11.7 µM]
CC(C)(C)OC(=O)C1=NOC2(C=CC(=O)C=C2)C1	-0.6
CCCCCCCC(=O)O[C@H](CC(=O)O)C[N+](C)(C)C	-13
CC(=O)C1C(=O)c2c(cccc2[N+](=O)[O-])C1=Nc1ccccc1C (stereo not given)	0.0
CN(Cc1ccco1)c1ncncc1-c1cccc(C#N)c1	1.5
C[C@H]1Cc2c(COc3ccccc3)nc3c(c2CO1)CN(C(=O)Cc1cccs1)CC3	1.8[11.7 µM]

This is a subset. The share of hits here may be higher or lower than overall.
